Screening results as filed in PubChem BioAssay.
PMP22 txn: PMP22 gene transcription modulation; S16 Pmp22-F2sN Schwann cells (luciferase reporters placed in the Pmp22 gene), FLuc/NLuc coincidence luminescence, 24 h; Potency, µM (titrated, usually from 57.5 µM), without a hit: top-dose activity change, negative = inhibition, usual class: inhibitors; 43,000 compounds, 2% hits; AID 1508649; active = clear falling dose curves in both reporters; inconclusive = both reporters move, but less clearly or upward; inactive = either reporter flat; the % is the NLuc reporter signal; also: % is scaled to controls: 0 for no effect and ±100 for the full control effect; some results filed as inactive show a strong effect at the top dose
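Schwann cells carrying the coincidence reporter were exposed to library compounds for 24 h at 37C, then lysed and read for FLuc and, after quenching, NLuc luminescence on a CCD imager.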
HTT prom inh: inhibitors of huntingtin promoter activity; AID 1508623; Potency, µM (highest dose often 57.5 µM), for inactives: at the highest dose activity change, negative = inhibition, most hits filed as inhibitors; 48,000 compounds, 0.93% hits; HEK293 HTT promoter firefly luciferase reporter (activity 0% = vehicle and -100% = no light), 24 h; active = well fitted inhibition curve with a large enough effect; inconclusive = small, poorly fitted or top-dose-only effect; inactive = no such curve, though single readings can be large or run the other way; also: nearly all actives have a fitted effect of over 50% in size
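Quantitative HTS used concentration series of up to 57.5 uM final on HEK293 luciferase reporter cells, 24 h at 37 degrees C. Readout was Dual-Glo firefly luminescence.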
Active calls of the source: *; [ ] = another dose, or the depositor's remark. Potency is read from the fitted curve at half-maximal effect.

Screening COc1ccc(-c2noc(-c3ccc(NC4CCCCC4)c([N+](=O)[O-])c3)n2)cc1 returned PMP22 txn 6% and HTT prom inh -17%.
For Cc1ccc2nc(Cl)c3cc(C(=O)N(C)C4CCCCC4)sc3c2c1 the results were PMP22 txn 4% and HTT prom inh -4%.
For COc1ccc(-c2noc(CSc3nnc(-c4ccncc4)n3-c3ccc(OC)cc3)n2)cc1 the results were PMP22 txn 2.4µM* and HTT prom inh -30%.
COc1cccc(-c2nnc(-c3cc4cc(Cl)ccc4oc3=O)o2)c1 was read as PMP22 txn inconclusive and HTT prom inh -12%[11.5 µM].
`Cc1ccc(N2CCn3c2nc2c3c(=O)n(CCCc3ccccc3)c(=O)n2C)cc1C` gave PMP22 txn -16% and HTT prom inh 2%.
For Cc1cccc(-n2cc(-c3ccccc3)c3c(NC4CCCC4)ncnc32)c1 the results were PMP22 txn -41% and HTT prom inh inconclusive.
For Cc1ccc(C)c(NC(=O)CCn2cnnn2)c1 the results were PMP22 txn -6% and HTT prom inh -5%.
CCOC(=O)C1CCN(C(=O)Cn2ncc3c4ccccc4n(C)c3c2=O)CC1 was read as PMP22 txn -11% and HTT prom inh -7%.
O=c1oc2ccccc2n1CCCOc1ccccc1Cl was read as PMP22 txn -5% and HTT prom inh 22%.
`CCSc1ncc(Cl)c(C(=O)Nc2nc3ccc(Cl)cc3s2)n1` gave PMP22 txn -20% and HTT prom inh -6%.
`CC(=O)c1cc(C(=O)Nc2cccc(C)c2)c2ccccn12` gave PMP22 txn 5% and HTT prom inh 19%.
Screening Cc1nn(C(=O)c2ccccc2)c(C)c1S(=O)(=O)N1CCCCCC1 returned PMP22 txn -17% and HTT prom inh -11%.
`COc1cccc(-c2cc(=O)c3ccccc3o2)c1N` gave HTT prom inh 34%[activator].
For COc1cc(C2CC(=O)Nc3c2c(C)nn3-c2nc(C)cc(C)n2)cc(OC)c1O (centres undefined) the results were PMP22 txn -11% and HTT prom inh -4%.
For CCOc1ccc(NC(=O)Cn2cc(S(=O)(=O)c3ccc(C)cc3)c(=O)c3cc(F)ccc32)cc1 the results were PMP22 txn inconclusive and HTT prom inh -21%.
For COc1ccc(CNC(=O)CSc2n[nH]c(-c3ccc(F)cc3)n2)cc1 the results were PMP22 txn -2% and HTT prom inh 4%.
O=C(NCCSc1c(-c2ccccc2)[nH]c2ccccc12)c1ccc(S(=O)(=O)N2CCOCC2)cc1 was read as PMP22 txn 9.5µM* and HTT prom inh inconclusive.
`CCc1ccccc1Nc1nn2c(=O)c3ccc(C(=O)NC4CCC(C)CC4)cc3nc2s1` (centres undefined) gave PMP22 txn inconclusive and HTT prom inh -22%.
For O=C(/C=C\c1ccc2c(c1)OCO2)NC1CC(=O)N(c2cccc(F)c2)C1 (centres undefined) the results were PMP22 txn -1% and HTT prom inh -19%.
Screening COc1ccccc1N1CCN(C(=O)c2cnc(N3CCOCC3)c3ccccc23)CC1 returned PMP22 txn inconclusive and HTT prom inh inconclusive.
For COc1ccccc1C(=O)N(Cc1ccco1)Cc1ccccc1F the results were PMP22 txn 2% and HTT prom inh -23%.
For COc1cc(OC)c(OC)cc1/C=C/c1nc2cc3ccccc3cc2c(=O)n1-c1ccc(F)c(Cl)c1 the results were PMP22 txn -10% and HTT prom inh inconclusive.
For Cc1ccc(C)c(N2CCN(C(=O)c3ccc4c(Cl)c5c(nc4c3)CCCC5)CC2)c1 the results were PMP22 txn inconclusive and HTT prom inh -6%.
CCOc1ccc(Nc2cc(C)c(C#N)c3nc4ccccc4n23)cc1 was read as PMP22 txn -21% and HTT prom inh -1%.
`COc1ccc(OC)c(NC(=O)N2CCC3(CC2)Oc2ccccc2C(=O)N3Cc2ccccc2F)c1` gave PMP22 txn -27% and HTT prom inh -28%.
CCOc1ccc2nc(N3CCCC(C(=O)NCCc4ccc(OC)cc4OC)C3)sc2c1 (centres undefined) was read as PMP22 txn inconclusive and HTT prom inh -9%.
For Cc1cc(C)c(S(=O)(=O)NCC(c2ccco2)N2CCOCC2)c(C)c1 (centres undefined) the results were PMP22 txn inconclusive and HTT prom inh -22%.
Screening COc1ccc(N2CC(NC(=O)c3ccc(S(=O)(=O)N4CCCC4)cc3)CC2=O)cc1 (centres undefined) returned PMP22 txn -11% and HTT prom inh -15%.
`CCc1cccc(C)c1NC(=O)c1cc(S(=O)(=O)N(Cc2ccc(C(=O)OC)cc2)Cc2ccc(OC)c(OC)c2)ccc1F` gave PMP22 txn -12% and HTT prom inh -18%.
CC(C)c1nn2c(=O)cc(COC(=O)COc3ccccc3F)nc2s1 was read as PMP22 txn 15% and HTT prom inh 0%.
For COCCNC(=O)c1ccc(-c2nc(CN3CCc4ccccc43)c(C)o2)cc1 the results were PMP22 txn inconclusive and HTT prom inh inconclusive.
`Cc1ccc(NC(=O)C2CCC(CNS(=O)(=O)c3cccs3)CC2)cc1C` (centres undefined) gave PMP22 txn -3% and HTT prom inh -26%.
Screening Cc1cccc(CNS(=O)(=O)c2ccc(-c3cnc(C4CC4)o3)cc2)c1 returned PMP22 txn inconclusive and HTT prom inh inconclusive.
CC(C)N(Cc1ccccc1)C(=O)CCS(=O)(=O)c1ccc2c(c1)oc(=O)n2C was read as PMP22 txn inconclusive and HTT prom inh -25%[11.5 µM].
For CCOc1ccc(Br)cc1CNCCSc1nnnn1-c1ccccc1 the results were PMP22 txn inconclusive and HTT prom inh -16%.
Screening CCOc1ccccc1NC(=O)CN1C(=O)COc2ccc(S(=O)(=O)Nc3ccccc3)cc21 returned PMP22 txn inconclusive and HTT prom inh -14%.
Screening CCOC(=O)C1(C)C=C(Nc2cccc(C(=O)O)c2)C(=O)N1c1ccccc1 (centres undefined) returned PMP22 txn -2% and HTT prom inh 20%.
CCOc1ccccc1NC(=O)CN1CCCN(Cc2cccc(Cl)c2)S1(=O)=O was read as PMP22 txn inconclusive and HTT prom inh -14%.
For COc1cccc(NC(=O)CSc2ncc3c(n2)-c2ccc(Cl)cc2N(C)S3(=O)=O)c1 the results were PMP22 txn 2.5µM* and HTT prom inh -22%.
For O=c1[nH]c(SCc2ccc([N+](=O)[O-])cc2)nc2c1CCCC2 the results were PMP22 txn 12% and HTT prom inh -21%.
Screening Cc1c(C(=O)NCC(c2ccc(Cl)cc2)N2CCOCC2)oc2ccccc12 (centres undefined) returned PMP22 txn -5% and HTT prom inh inconclusive.
For Cc1ccc(Cl)cc1N1CCN(C(=O)c2cn(CC(C)C)c(=O)c3c2c2ccccc2n3C)CC1 the results were PMP22 txn inconclusive and HTT prom inh inconclusive.
Screening CCc1ccc(-c2csc(-c3cc4cc(Br)ccc4oc3=O)n2)cc1 returned PMP22 txn -1% and HTT prom inh -13%.
Cc1ccc(NC(=O)C2=CC(c3cccs3)=NS(=O)(=O)N2C)cc1 was read as PMP22 txn -12% and HTT prom inh inconclusive.
Screening CCOc1ccc(C(=O)NCc2nc3cccnc3n2Cc2ccc(F)cc2)cc1OCC returned PMP22 txn -46% and HTT prom inh -7%.
For Cc1ccc(NC(=O)Cn2c(=O)n(CC(=O)NCCc3ccccc3)c(=O)c3ccccc32)cc1 the results were PMP22 txn inconclusive and HTT prom inh -3%.
Screening CCC1CCc2nc3sc(C(=O)Nc4ccc(F)c(Cl)c4)c(N)c3cc2C1 (centres undefined) returned PMP22 txn -11% and HTT prom inh 2%.
Cc1ccc(OCC(=O)Nc2nnc(SCc3cc(=O)n4cccc(C)c4n3)s2)cc1 was read as PMP22 txn 12% and HTT prom inh 7%.
For O=C(NC1(C(F)(F)F)C(=O)Nc2c1c(=O)[nH]c(=O)n2-c1ccc(Cl)cc1)c1ccccc1F (centres undefined) the results were PMP22 txn -74% and HTT prom inh 2%.
CS(=O)(=O)N1CCN(Cc2cc3nc(-c4cccc5[nH]ncc45)nc(N4CCOCC4)c3s2)CC1 was read as HTT prom inh inconclusive.
For Cc1cnc2c(c1SCC(=O)N(C)c1ccccc1)c(=O)n(C)c(=O)n2C the results were PMP22 txn 31% and HTT prom inh -7%.
`CC(=O)NC(=O)c1ccccc1O` gave HTT prom inh -3%.
`Cc1ccc(S(=O)(=O)c2cnc(SCC(=O)Nc3cccc(Cl)c3)nc2N)cc1C` gave PMP22 txn inconclusive and HTT prom inh -13%.
For CC(=O)Nc1ccc(NC(=O)c2ccc3c(c2)CCN3S(=O)(=O)c2ccc(C)cc2)cc1 the results were PMP22 txn -4% and HTT prom inh -21%.
O=C(NC1CC(=O)N(c2ccc(F)cc2)C1)C1CCCCC1 (centres undefined) was read as PMP22 txn -2% and HTT prom inh 2%.
COc1ccc(C)cc1-n1c(-c2ccc(C)cc2)cc2c1CC(C)(C)CC2=O was read as PMP22 txn -5% and HTT prom inh 12%.
Screening COc1ccc(S(=O)(=O)Nc2ccc3oc4c(c3c2)CCCC4)cc1 returned PMP22 txn -19% and HTT prom inh inconclusive.
COc1ccc(NC(=O)c2oc3c(c2C)-c2nn(Cc4ccccc4Cl)cc2CC3)cc1OC was read as PMP22 txn -34% and HTT prom inh inconclusive.
O=C(CNS(=O)(=O)c1ccc(Br)s1)N1CCN(c2ccccc2F)CC1 was read as PMP22 txn inconclusive and HTT prom inh -16%.
`COc1ccc(NC(=O)c2cc(C3CC3)nc3c2c(C)nn3-c2ccccc2)cc1` gave PMP22 txn -5% and HTT prom inh -19%.
`Clc1ccc2nc(NCc3ccccc3)c3nncn3c2c1` gave PMP22 txn 25% and HTT prom inh -10%.
For CCOc1ccc(CCNC(=O)c2ccc3c(c2)sc2nc(-c4ccc(F)cc4)cn23)cc1OCC the results were PMP22 txn -115% and HTT prom inh -22%.
`O=C(CS)Nc1ccccc1` gave HTT prom inh -22%.
CCc1nn2c(=O)c(S(=O)(=O)Nc3ccc(Cl)cc3)c(C)nc2s1 was read as PMP22 txn inconclusive and HTT prom inh inconclusive.
Screening CCN(CC)CCCNC(=O)c1ccc2c(c1)NC(=O)C(CS(=O)(=O)Cc1cccc(Br)c1)N2 (centres undefined) returned PMP22 txn inconclusive and HTT prom inh -14%.
For CC1=NS(=O)(=O)c2cc(Cl)ccc2N1 the results were HTT prom inh 9%.
`CCOc1ccc(NC(=O)Cn2c(=O)n(CCC(=O)NCCc3ccccc3)c(=O)c3ccccc32)cc1` gave PMP22 txn 15% and HTT prom inh -2%.
`COc1ccccc1CNC(=O)CSc1ncc2c(n1)-c1ccc(Cl)cc1N(Cc1ccccc1)S2(=O)=O` gave PMP22 txn -31% and HTT prom inh -2%.
Screening CC(C)CNC(=O)c1c(-c2ccccc2)c(-c2ccccc2)nn(C)c1=O returned PMP22 txn -6% and HTT prom inh -15%.
`CCOc1ccc(C2C(C(=O)Nc3ccccc3)=C(C)Nc3nc(SCc4cc(C)ccc4C)nn32)cc1` (centres undefined) gave PMP22 txn 7% and HTT prom inh -7%.
`Cc1ccc(Cl)cc1NC(=O)Cn1c(=O)c2ccccc2n2nncc12` gave PMP22 txn -24% and HTT prom inh -11%.
For COc1cccc(CNC(=O)CSc2n[nH]c(-c3ccccc3Cl)n2)c1OC the results were PMP22 txn 9% and HTT prom inh -15%.
`CCSc1ncc(Cl)c(C(=O)N(Cc2ccccc2Cl)C2CCS(=O)(=O)C2)n1` (centres undefined) gave PMP22 txn inconclusive and HTT prom inh -10%.

Among those listed so far, 14 contain fluorine.
For CCOc1ccc(NC(=O)Cn2cc(S(=O)(=O)c3ccc(C)cc3)c(=O)c3cc(F)ccc32)cc1 the results were PMP22 txn inconclusive and HTT prom inh -21%.
For COc1ccc(CNC(=O)CSc2n[nH]c(-c3ccc(F)cc3)n2)cc1 the results were PMP22 txn -2% and HTT prom inh 4%.
For O=C(/C=C\c1ccc2c(c1)OCO2)NC1CC(=O)N(c2cccc(F)c2)C1 (centres undefined) the results were PMP22 txn -1% and HTT prom inh -19%.
For COc1ccccc1C(=O)N(Cc1ccco1)Cc1ccccc1F the results were PMP22 txn 2% and HTT prom inh -23%.
For COc1cc(OC)c(OC)cc1/C=C/c1nc2cc3ccccc3cc2c(=O)n1-c1ccc(F)c(Cl)c1 the results were PMP22 txn -10% and HTT prom inh inconclusive.
`COc1ccc(OC)c(NC(=O)N2CCC3(CC2)Oc2ccccc2C(=O)N3Cc2ccccc2F)c1` gave PMP22 txn -27% and HTT prom inh -28%.
`CCc1cccc(C)c1NC(=O)c1cc(S(=O)(=O)N(Cc2ccc(C(=O)OC)cc2)Cc2ccc(OC)c(OC)c2)ccc1F` gave PMP22 txn -12% and HTT prom inh -18%.
CC(C)c1nn2c(=O)cc(COC(=O)COc3ccccc3F)nc2s1 was read as PMP22 txn 15% and HTT prom inh 0%.
Screening CCOc1ccc(C(=O)NCc2nc3cccnc3n2Cc2ccc(F)cc2)cc1OCC returned PMP22 txn -46% and HTT prom inh -7%.
Screening CCC1CCc2nc3sc(C(=O)Nc4ccc(F)c(Cl)c4)c(N)c3cc2C1 (centres undefined) returned PMP22 txn -11% and HTT prom inh 2%.
For O=C(NC1(C(F)(F)F)C(=O)Nc2c1c(=O)[nH]c(=O)n2-c1ccc(Cl)cc1)c1ccccc1F (centres undefined) the results were PMP22 txn -74% and HTT prom inh 2%.
O=C(NC1CC(=O)N(c2ccc(F)cc2)C1)C1CCCCC1 (centres undefined) was read as PMP22 txn -2% and HTT prom inh 2%.
O=C(CNS(=O)(=O)c1ccc(Br)s1)N1CCN(c2ccccc2F)CC1 was read as PMP22 txn inconclusive and HTT prom inh -16%.
For CCOc1ccc(CCNC(=O)c2ccc3c(c2)sc2nc(-c4ccc(F)cc4)cn23)cc1OCC the results were PMP22 txn -115% and HTT prom inh -22%.
